Assay outcomes: PubChem, Broad Institute
Yeast UUG start: modulators of yeast start codon fidelity, primary screen, whole organism, S. cerevisiae, single point, plate reader. S. cerevisiae UUG-firefly luciferase reporter, luminescence/redox ratio. activity score, % at 18.7 µM. 350,000 compounds, 0.13% hits;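 active = replicate mean at a twofold rise or more, about +100% in these data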;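 also: firefly luciferase made from a UUG start codon reports start codon fidelity; reporter light over untreated wells divided by growth signal over untreated wells; some hits fall short of that in this replicate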
HIV Env fusion: inhibitors of HIV-1 Env-driven cell-cell fusion, primary screen, HeLa-JRFL effector, CEM21 target cells, luciferase. 360,000 compounds, 1.1% hits. AID 651610, 2012. inhibition, % at 12.3 µM;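 active = mean replicate inhibition score of at least 50 and every replicate individually at or above 50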;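 also: 0% = plate neutral controls and 100% = maraviroc near 300 nM; one replicate is shown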
* = called active by the depositor; [ ] = dose if it differs, or a comment. Not all compounds are listed. The share of hits here may be higher or lower than overall.

#	Compound	Yeast UUG start	HIV Env fusion
1	C[C@@H]1CN([C@H](C)CO)S(=O)(=O)c2ccc(-c3ccncc3)cc2O[C@@H]1CN(C)C(=O)c1ccc2c(c1)OCO2	-5.6	-3.4[16.7 µM]
2	C[C@H]1CCCCO[C@H](CN(C)Cc2ccccc2)[C@@H](C)CN([C@@H](C)CO)C(=O)c2cc(NC(=O)CCCN(C)C)ccc2O1	8.8	-51.4[16.7 µM]
3	CN1CCN(C(=O)C[C@H]2CC[C@@H]3[C@H](COC[C@H](O)CN3C(=O)Nc3ccc4c(c3)OCO4)O2)CC1	-3.3	-10.5[16.7 µM]
4	Cc1ccc(S(=O)(=O)Nc2cccc3c2O[C@H](CN(C)S(=O)(=O)c2cccs2)[C@@H](C)CN([C@H](C)CO)C3=O)cc1	6.0	-12.4[16.7 µM]
5	Cc1ccc(-c2ccc3c(c2)O[C@H](CN(C)C(=O)Nc2ccccc2)[C@H](C)CN([C@H](C)CO)S3(=O)=O)cc1	122.3*	4.8[16.7 µM]
6	CNC(=O)C[C@H]1CC[C@@H]2[C@H](COc3ccc(NC(=O)Nc4ccccc4OC)cc3C(=O)N2C)O1	7.5	13.4[16.7 µM]
7	N#C[C@H]1[C@H](c2ccccc2)[C@H](CO)N1C(=O)Cc1ccccc1	-1.3	7.2[16.7 µM]
8	O=C(O)C[C@@H]1CC[C@@H](NC(=O)Nc2ccccc2)[C@@H](CO)O1	-3.4	-4.7[16.7 µM]
9	C[C@@H]1CN([C@H](C)CO)S(=O)(=O)c2ccc(C3=CCCC3)cc2O[C@H]1CN(C)Cc1ccncc1	-0.4	36.7[16.7 µM]
10	C[C@H](CO)N1C[C@H](C)[C@H](CN(C)Cc2ccncc2)OCCCC[C@H](C)Oc2ccc(NC(=O)CCC(F)(F)F)cc2C1=O	-0.1	-15.8[16.7 µM]
11	C[C@H](CO)N1C[C@H](C)[C@H](CN(C)Cc2ccc3c(c2)OCO3)OCCCC[C@H](C)Oc2ccc(NC(=O)Nc3ccc(F)cc3)cc2C1=O	8.7	35.0[16.7 µM]
12	C[C@H]1CN([C@@H](C)CO)C(=O)Cc2cc(NS(=O)(=O)c3ccc(F)cc3)ccc2O[C@@H]1CN(C)C(=O)Nc1ccccc1	-2.1	-5.4[16.7 µM]
13	C[C@H]1CN([C@@H](C)CO)C(=O)c2cccc(NS(C)(=O)=O)c2O[C@@H]1CN(C)CC1CC1	6.7	1.6[16.7 µM]
14	C[C@@H]1CN([C@H](C)CO)S(=O)(=O)c2ccc(-c3ccncc3)cc2O[C@H]1CN(C)C(=O)CC1CC1	-8.3	-24.7[16.7 µM]
15	CC(C)NC(=O)N(C)C[C@H]1Oc2ncc(C#Cc3ccc(F)cc3)cc2C(=O)N([C@H](C)CO)C[C@@H]1C	11.7	6.4[16.7 µM]
16	CN1C(=O)c2cc(NC(=O)c3cccs3)ccc2OC[C@H]2O[C@@H](CC(=O)NCC(F)(F)F)CC[C@H]21	19.8	-1.0[16.7 µM]
17	C[C@@H]1CN([C@H](C)CO)S(=O)(=O)c2ccc(/C=C/c3ccccc3)cc2O[C@H]1CN(C)C(=O)Nc1cccc(F)c1	-11.3	-2.8[16.7 µM]
18	C[C@@H]1CN([C@H](C)CO)C(=O)c2cc(NS(=O)(=O)c3ccccc3)ccc2O[C@@H](C)CCCCO[C@H]1CN(C)S(=O)(=O)c1ccc(F)cc1	-1.7	-42.9[16.7 µM]
19	C[C@@H]1CN([C@H](C)CO)C(=O)c2cc(C3=CCCC3)cnc2O[C@@H]1CN(C)Cc1cccc(F)c1	5.1	-26.4[16.7 µM]
20	C[C@@H]1CCCCO[C@@H](CN(C)C(=O)Nc2ccccc2)[C@@H](C)CN([C@H](C)CO)C(=O)c2cc(NC(=O)C3CCCCC3)ccc2O1	0.8	2.7[16.7 µM]
21	Cc1noc(C)c1NC(=O)N[C@@H]1C=C[C@@H](CC(=O)NCc2ccc(Cl)c(Cl)c2)O[C@H]1CO	1.7	5.1[16.7 µM]
22	C[C@@H]1CCCCO[C@H](CN(C)C(=O)CCC(F)(F)F)[C@@H](C)CN([C@H](C)CO)C(=O)c2cc(NC(=O)CCC(F)(F)F)ccc2O1	11.6	-2.8[16.7 µM]
23	C[C@H]1CN([C@@H](C)CO)C(=O)Cc2cc(N(C)C)ccc2O[C@@H]1CN(C)S(=O)(=O)c1cccs1	-3.0	-3.6[16.7 µM]
24	C[C@H]1CN([C@@H](C)CO)C(=O)c2cc(-c3ccccc3F)cnc2O[C@@H]1CN(C)Cc1ccccc1	-3.9	1.8[16.7 µM]
25	O=C(C[C@@H]1CC[C@@H]2[C@H](COC[C@@H](O)CN2CCC(F)(F)F)O1)NCc1ccc2c(c1)OCO2	-11.6	2.1[16.7 µM]
26	CCS(=O)(=O)NCC[C@@H]1CC[C@@H](NS(=O)(=O)c2cccc(Cl)c2)[C@H](CO)O1	-24.7	-4.1[16.7 µM]
27	C[C@@H]1CCCCO[C@@H](CN(C)C(=O)Nc2cccc3ccccc23)[C@H](C)CN([C@@H](C)CO)C(=O)c2cc(NC(=O)Nc3ccccc3)ccc2O1	2.9	-56.3[16.7 µM]
28	COc1ccc(CN(C)C[C@@H]2Oc3ccc(NC(=O)Cc4cn(C)c5ccccc45)cc3C(=O)N([C@@H](C)CO)C[C@@H]2C)cc1	7.6	-42.5[16.7 µM]
29	C[C@@H]1CN([C@@H](C)CO)C(=O)c2cc(NC(=O)Nc3ccc(F)cc3)ccc2O[C@@H](C)CCCCO[C@H]1CN(C)S(=O)(=O)c1cccs1	-5.1	0.8[16.7 µM]
30	COc1ccc(CN(C)C[C@H]2OCCCC[C@H](C)Oc3ccc(NC(=O)Nc4ccc(OC)cc4)cc3C(=O)N([C@H](C)CO)C[C@@H]2C)cc1	32.4	-15.0[16.7 µM]
31	C[C@H]1CCCCO[C@@H](CN(C)Cc2ccc(C(F)(F)F)cc2)[C@@H](C)CN([C@@H](C)CO)C(=O)c2cc(NC(=O)c3ccccc3)ccc2O1	17.8	68.9*[16.7 µM]
32	O=C(C[C@@H]1C=C[C@H](NC(=O)C2CCC2)[C@@H](CO)O1)Nc1nccs1	-3.5	-4.2[16.7 µM]
33	Cc1noc(C)c1NC(=O)N(C)C[C@@H]1OCCCC[C@@H](C)Oc2ccc(NC(=O)NC3CCCCC3)cc2C(=O)N([C@H](C)CO)C[C@H]1C	-4.8	-25.3[16.7 µM]
34	C[C@@H]1CN([C@H](C)CO)C(=O)c2cc(C#Cc3cccc(F)c3)cnc2O[C@H]1CN(C)C(=O)C1CCCCC1	4.3	19.1[16.7 µM]
35	C[C@@H]1CCCCO[C@H](CN(C)S(=O)(=O)c2cccs2)[C@H](C)CN([C@@H](C)CO)C(=O)c2cc(NC(=O)c3ccccc3)ccc2O1	-0.5	8.1[16.7 µM]
36	CCC(=O)N(C)C[C@H]1Oc2ncc(C#CCC3CCCC3)cc2C(=O)N([C@@H](C)CO)C[C@@H]1C	6.2	17.3[16.7 µM]
37	C[C@H](CO)N1C[C@H](C)[C@@H](CN(C)S(=O)(=O)c2cn(C)cn2)Oc2ccc(NC(=O)Nc3ccc4c(c3)OCO4)cc2CC1=O	5.8	31.2[16.7 µM]
38	Cc1ccc(S(=O)(=O)N[C@@H]2CC[C@H](CC(=O)NCc3ccccc3F)O[C@@H]2CO)cc1	-10.1	11.3[16.7 µM]
39	COC(=O)c1cn(-c2cccc(N)c2)nn1	-3.5	-30.9[16.7 µM]
40	COc1ccc(CN(C)C[C@@H]2Oc3ccc(NC(=O)C4CC4)cc3C(=O)N([C@@H](C)CO)C[C@@H]2C)cc1	-9.6	14.6[16.7 µM]
41	CO[C@H]1CN(C)C(=O)c2cc(NC(=O)C3CCOCC3)ccc2OC[C@@H](C)N(C)C[C@H]1C	-8.6	-11.5[16.7 µM]
42	Cc1noc(C)c1NC(=O)Nc1cccc2c1O[C@H](CN(C)Cc1ccccc1)[C@H](C)CN([C@H](C)CO)C2=O	-5.9	-14.5[16.7 µM]
43	Cn1cnc(S(=O)(=O)N[C@@H]2CC[C@@H](CC(=O)Nc3ccc(-c4ccccc4)cc3)O[C@H]2CO)c1	-4.1	6.4[16.7 µM]
44	COc1ccc(CNC(=O)C[C@H]2C[C@H]3c4cc(NC(=O)CN(C)C)ccc4O[C@H]3[C@@H](CO)O2)cc1	0.4	-5.7[16.7 µM]
45	C[C@@H]1CN([C@H](C)CO)C(=O)c2cc(/C=C/c3ccccc3)cnc2O[C@H]1CN(C)C(=O)c1ccc(F)cc1	10.9	12.6[16.7 µM]
46	Cc1noc(C)c1S(=O)(=O)Nc1ccc2c(c1)C(=O)N([C@H](C)CO)C[C@H](C)[C@@H](CN(C)S(=O)(=O)c1c(C)noc1C)OCCCC[C@@H](C)O2	-3.5	-21.0[16.7 µM]
47	Cc1noc(C)c1NC(=O)Nc1ccc2c(c1)C(=O)N([C@H](C)CO)C[C@H](C)[C@@H](CN(C)C(=O)NC1CCCCC1)OCCCC[C@H](C)O2	18.3	10.1[16.7 µM]
48	Cc1noc(C)c1NC(=O)N(C)C[C@@H]1OCCCC[C@H](C)Oc2ccc(N(C)C)cc2C(=O)N([C@@H](C)CO)C[C@@H]1C	-2.1	-9.0[16.7 µM]
49	C[C@@H]1CN([C@@H](C)CO)S(=O)(=O)c2ccc(Br)cc2O[C@@H]1CN(C)Cc1ccncc1	11.0	-4.1[16.7 µM]
50	C[C@@H]1CCCCO[C@@H](CN(C)S(=O)(=O)c2ccc(F)cc2)[C@@H](C)CN([C@H](C)CO)C(=O)c2cc(NS(=O)(=O)c3ccc(F)cc3)ccc2O1	-9.1	-26.8[16.7 µM]
51	CC(C)NC(=O)Nc1ccc2c(c1)C(=O)N([C@@H](C)CO)C[C@H](C)[C@@H](CN(C)C(=O)Nc1ccc3c(c1)OCO3)OCCCC[C@H](C)O2	-0.4	-21.9[16.7 µM]
52	CO[C@H]1CN(C)C(=O)c2cc(NC(=O)Nc3cccc(F)c3)ccc2OC[C@H](C)N(C(C)=O)C[C@@H]1C	5.0	8.4[16.7 µM]
53	CN1CCN(C(=O)C[C@H]2CC[C@H]3[C@H](COc4ccc(NC(=O)C5CC5)cc4C(=O)N3C)O2)CC1	-5.4	2.6[16.7 µM]
54	C[C@@H]1CN([C@@H](C)CO)C(=O)Cc2cc(NC(=O)Nc3ccc(C(F)(F)F)cc3)ccc2O[C@@H]1CN(C)C(=O)Nc1cccc2ccccc12	-14.2	-16.0[16.7 µM]
55	CN1C(=O)c2cc(NC(=O)c3ccccc3)ccc2OC[C@H]2O[C@H](CC(=O)O)CC[C@@H]21	-5.2	4.0[16.7 µM]
56	CO[C@@H]1CN(C)C(=O)c2cc(NC(=O)c3ccc(F)cc3)ccc2OC[C@H](C)N(C(=O)CN(C)C)C[C@@H]1C	-6.8	-6.1[16.7 µM]
57	C[C@@H]1CN([C@H](C)CO)C(=O)c2cc(C#CCN(C)C)cnc2O[C@H]1CN(C)Cc1ccccc1	-9.2	4.0[16.7 µM]
58	COc1ccc(-c2ccc([C@H]3[C@@H](CO)N(C(=O)C4CCC4)[C@H]3C#N)cc2)cc1	-1.7	-12.9[16.7 µM]
59	CS(=O)(=O)N1C[C@H](O)COC[C@H]2O[C@@H](CC(=O)NCc3ccccc3)CC[C@@H]21	-4.6	10.8[16.7 µM]
60	C[C@@H]1CN([C@@H](C)CO)C(=O)c2cc(NC(=O)CCC(F)(F)F)ccc2O[C@@H](C)CCCCO[C@H]1CN(C)C(=O)CCCN(C)C	9.7	16.5[16.7 µM]

Some of the entries so far, field by field.
#47 Cc1noc(C)c1NC(=O)Nc1ccc2c(c1)C(=O)N([C@H](C)CO)C[C@H](C)[C@@H](CN(C)C(=O)NC1CCCCC1)OCCCC[C@H](C)O2
  Yeast UUG start: 18.3	HIV Env fusion: 10.1[16.7 µM]
#48 Cc1noc(C)c1NC(=O)N(C)C[C@@H]1OCCCC[C@H](C)Oc2ccc(N(C)C)cc2C(=O)N([C@@H](C)CO)C[C@@H]1C
  Yeast UUG start: -2.1	HIV Env fusion: -9.0[16.7 µM]

Later entries.
#	Compound	Yeast UUG start	HIV Env fusion
61	COc1ccc(S(=O)(=O)Nc2ccc3c(c2)C(=O)N([C@H](C)CO)C[C@@H](C)[C@H](CN(C)S(=O)(=O)c2ccc(OC)cc2)O3)cc1	4.0	9.7[16.7 µM]
62	C[C@@H]1CN([C@@H](C)CO)C(=O)c2cc(NC(=O)c3ccncc3)ccc2O[C@@H]1CN(C)Cc1ccc(C(F)(F)F)cc1	7.4	2.5[16.7 µM]
63	C[C@H]1CN([C@@H](C)CO)C(=O)c2cc(C#CCN(C)C)cnc2O[C@H]1CN(C)C(=O)CCN1CCCCC1	9.5	3.3[16.7 µM]
64	O=C(CCN1CCCCC1)NCC[C@H]1CC[C@@H](NC(=O)C2CCCC2)[C@@H](CO)O1	7.3	-6.2[16.7 µM]
65	C[C@H](CO)N1C[C@H](C)[C@H](CN(C)C(=O)Nc2ccc(C(F)(F)F)cc2)OCCCC[C@H](C)Oc2ccc(NC(=O)CCC(F)(F)F)cc2C1=O	17.5	-19.4[16.7 µM]
66	CCC(=O)N(C)C[C@H]1Oc2cc(-c3ccc(F)cc3)ccc2S(=O)(=O)N([C@@H](C)CO)C[C@H]1C	15.8	-5.6[16.7 µM]

Complete entries, quoted from the list:
Entry for C[C@@H]1CN([C@@H](C)CO)C(=O)c2cc(NC(=O)c3ccncc3)ccc2O[C@@H]1CN(C)Cc1ccc(C(F)(F)F)cc1 = Yeast UUG start = 7.4; HIV Env fusion = 2.5[16.7 µM]
Entry for C[C@@H]1CCCCO[C@@H](CN(C)C(=O)Nc2cccc3ccccc23)[C@H](C)CN([C@@H](C)CO)C(=O)c2cc(NC(=O)Nc3ccccc3)ccc2O1 = Yeast UUG start = 2.9; HIV Env fusion = -56.3[16.7 µM]
Entry for C[C@H](CO)N1C[C@H](C)[C@H](CN(C)Cc2ccncc2)OCCCC[C@H](C)Oc2ccc(NC(=O)CCC(F)(F)F)cc2C1=O = Yeast UUG start = -0.1; HIV Env fusion = -15.8[16.7 µM]
